From PubChem BioAssay
eIF4H FP inh – inhibitors of RNA binding by human eIF4H. AID 2012. hit rate 0.94% among 290,000. eIF4H fluorescence polarization binding assay. Q15056. inhibition, % at 35 µM;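 active = 50% or more with normal probe brightness, or confirmed in later tests; inconclusive = above 50% with abnormal brightness, or retests that disagree; inactive = below 50% or failed in later tests; about a fifth of its hits are not listed in these tables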;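 also: calls also rest on retests at 20 µM and on dose response follow-up; 0% = protein and probe with vehicle and 100% = probe without protein; strong numbers were not always called active; many hits fall short of the cut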
MT1-MMP act inh – blocks activation of human MT1-MMP | P50281 | AID 651647 | HT1080 RFP-PRO-GFP cells, GFP/RFP ratio fluorescence, overnight; percent of plate control window, DMSO zero | hit rate 0.061% among 360,000 | GFP/RFP ratio change, % at 20 µM;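 active = GFP/RFP ratio change of at least 30% with cell ATP level not reduced by more than half and red fluorescence within 50% of control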; also: strong numbers were not always called active
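Compound: 20 µM single dose, 1% DMSO / System: HT1080 RFP-PRO-GFP cells / Controls: DMSO and RFP-L50D-GFP cell wells / Read-out basis: GFP/RFP fluorescence ratio / Schedule: overnight compound exposure at 37 °C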
HIV Env fusion – blocks HIV Env-driven cell-cell fusion | hit rate 1.1% among 360,000 | HeLa-JRFL Env/CEM21 cell fusion, luciferase | inhibition, % at 12.3 µM;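 active = mean replicate inhibition score of at least 50 and every replicate individually at or above 50; inconclusive = only one of the two criteria met; inactive = mean below 50 and not all replicates reaching 50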;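 also: 0% = plate neutral controls and 100% = maraviroc near 300 nM; one replicate is shown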
Yeast UUG start – yeast start codon fidelity modulation; S. cerevisiae UUG-firefly luciferase reporter, luminescence/redox ratio; activity score, % at 18.7 µM; hit rate 0.13% among 350,000; AID 602363;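 active = replicate mean at a twofold rise or more, about +100% in these data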;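 also: firefly luciferase made from a UUG start codon reports start codon fidelity; reporter light over untreated wells divided by growth signal over untreated wells; some hits fall short of that in this replicate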
Rce1 inh – inhibitors of yeast Ras-converting enzyme; yeast membranes, quenched prenylated peptide cleavage fluorescence; calls only; hit rate 0.27% among 290,000; AID 2563;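 active = fall in fluorescence gain of 50% or more versus controls, with final raw signal at or below 3038400; inconclusive = same 50% fall but final raw signal above 3038400; inactive = fall in fluorescence gain under 50%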;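 also: plate controls were neutral control wells for no effect and wells lacking membranes for full effect; tested at 10 µM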
Target sequence (Q03530 whole entry, looked up): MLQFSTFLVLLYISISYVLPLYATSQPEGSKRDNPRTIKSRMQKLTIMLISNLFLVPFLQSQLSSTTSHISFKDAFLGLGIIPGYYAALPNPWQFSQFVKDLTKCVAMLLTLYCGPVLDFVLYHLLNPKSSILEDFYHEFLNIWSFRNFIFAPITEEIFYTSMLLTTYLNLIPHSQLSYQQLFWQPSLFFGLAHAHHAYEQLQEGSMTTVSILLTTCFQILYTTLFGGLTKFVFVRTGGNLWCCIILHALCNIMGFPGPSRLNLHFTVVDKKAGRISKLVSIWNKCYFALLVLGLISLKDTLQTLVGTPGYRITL
CSC inhib – cancer stem cell inhibition | AID 2717 | hit rate 1.1% among 300,000 | cancer stem cell-like cells viability, luminescence | inhibition, % at 7.5 µM;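 active = mean at 75% or more and at least half the replicates too; inconclusive = mean and replicates disagree; tested in HMLE shEcad cells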;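 also: 0% = median of negative and 100% = median of positive control wells; the first replicate is given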
PABP polyA inh – PABP-poly(A) binding inhibition. P11940. PABP-poly(A) RNA binding, fluorescence polarization. inhibition, % at 35 µM. hit rate 1% among 290,000;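 active = 50% or more with normal probe brightness, or confirmed in later tests; inconclusive = above 50% with abnormal brightness, or retests that disagree; inactive = below 50% or failed in later tests; about a fifth of its hits are not listed in these tables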;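 also: calls also rest on retests at 20 µM and on dose response follow-up; controls were probe without protein and protein plus probe with vehicle; some compounds called inactive have numbers as strong as hits; many hits fall short of the cut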
Target sequence (P11940 whole entry, looked up): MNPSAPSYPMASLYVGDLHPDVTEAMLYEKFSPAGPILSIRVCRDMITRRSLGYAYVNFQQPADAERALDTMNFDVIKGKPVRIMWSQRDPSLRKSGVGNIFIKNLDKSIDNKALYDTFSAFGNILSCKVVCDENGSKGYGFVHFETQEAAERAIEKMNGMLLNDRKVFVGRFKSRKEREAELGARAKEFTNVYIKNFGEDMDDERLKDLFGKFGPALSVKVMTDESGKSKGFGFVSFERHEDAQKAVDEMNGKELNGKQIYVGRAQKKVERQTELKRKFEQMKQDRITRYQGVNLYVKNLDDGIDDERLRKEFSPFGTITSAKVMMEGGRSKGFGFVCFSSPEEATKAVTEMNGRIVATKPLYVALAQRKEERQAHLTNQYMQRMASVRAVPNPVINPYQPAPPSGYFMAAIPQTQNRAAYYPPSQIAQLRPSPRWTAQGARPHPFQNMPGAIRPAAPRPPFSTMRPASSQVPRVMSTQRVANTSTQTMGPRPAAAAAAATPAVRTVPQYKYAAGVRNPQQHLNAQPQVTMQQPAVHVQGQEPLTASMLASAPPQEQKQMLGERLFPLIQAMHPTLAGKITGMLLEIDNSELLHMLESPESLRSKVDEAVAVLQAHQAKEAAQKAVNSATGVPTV
eIF4H FP inh retest – recorded beside eIF4H FP inh, whose call it bears; inhibition, %; compound at 20 µM; confirmation average;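 mean of two retest wells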
PABP polyA inh retest – also measured in PABP polyA inh; calls as there; inhibition, %; compound at 20 µM; confirmation repeats;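 mean of two retest wells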
MT1-MMP act inh RFP – also measured in MT1-MMP act inh; calls as there; RFP signal change, %; measured here: RFP expression control read;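 0 = vehicle wells; hits needed this value within 50% of zero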
The depositor's hits bear a star.

Screening CC1=NNC(=O)C1CCC(=O)N/N=C/c1ccc(Cl)cc1 (configuration not stated) returned eIF4H FP inh -7, MT1-MMP act inh -4, HIV Env fusion 0, Yeast UUG start 4, Rce1 inh inactive, CSC inhib -14, PABP polyA inh 0 and MT1-MMP act inh RFP -1.
CC(Oc1cc2oc(=O)c3c(c2cc1Cl)CCC3)C(=O)NCCCN1CCCC1=O (configuration not stated) was read as eIF4H FP inh 61, MT1-MMP act inh -3, HIV Env fusion -10, Yeast UUG start -14, Rce1 inh inactive, CSC inhib -3, PABP polyA inh 4, eIF4H FP inh retest -11, PABP polyA inh retest 12 and MT1-MMP act inh RFP -3.
`O=C(c1ccc(CN2CCOCC2)cc1)N1CCN(c2ccccc2F)CC1` gave eIF4H FP inh 11, MT1-MMP act inh 1, Yeast UUG start -21, Rce1 inh inactive, CSC inhib 38, PABP polyA inh -4 and MT1-MMP act inh RFP 6.
For O=[N+]([O-])c1ccc2c(c1)c(-c1ccccc1)nc1nncn12 the results were eIF4H FP inh -4, MT1-MMP act inh 2, HIV Env fusion 6, Rce1 inh inactive, PABP polyA inh -2 and MT1-MMP act inh RFP 4.
`O=C(Nn1cnnc1)c1ccc(Cl)cc1[N+](=O)[O-]` gave eIF4H FP inh -5, MT1-MMP act inh 0, HIV Env fusion 12, Yeast UUG start -6, Rce1 inh inactive, CSC inhib -8, PABP polyA inh -1 and MT1-MMP act inh RFP -1.
COc1ccc(C2N=C(c3ccccc3)C(C)(C)N2O)cc1 (configuration not stated) was read as eIF4H FP inh -8, MT1-MMP act inh 2, Yeast UUG start -9, Rce1 inh inactive, PABP polyA inh -6 and MT1-MMP act inh RFP 2.
`O=C(O)c1cc(-c2ccc(Cl)cc2)n(-c2cccc(Cl)c2)n1` gave eIF4H FP inh 6, MT1-MMP act inh 0, HIV Env fusion 17, Yeast UUG start -10, Rce1 inh inactive, CSC inhib -7, PABP polyA inh 0 and MT1-MMP act inh RFP -2.
For COc1cc(C=O)ccc1OCCOCCOc1cc(C)ccc1Cl the results were eIF4H FP inh 1, MT1-MMP act inh 1, Yeast UUG start -5, Rce1 inh inactive, CSC inhib 2, PABP polyA inh -5 and MT1-MMP act inh RFP 0.
`Cc1cc2c(cc1S(=O)(=O)NCc1ccc(N(C)C)cc1)OCC(=O)N2` gave eIF4H FP inh 3, MT1-MMP act inh -1, HIV Env fusion -14, Yeast UUG start -7, Rce1 inh inactive, CSC inhib -4, PABP polyA inh 7 and MT1-MMP act inh RFP -3.
For Cc1ccccc1-n1c(O)c(/C=C/C=Nc2ccccc2)c(=O)[nH]c1=O the results were eIF4H FP inh inconclusive, MT1-MMP act inh -128, HIV Env fusion -6, Rce1 inh inactive, PABP polyA inh 9 and MT1-MMP act inh RFP 16.

A portion of the results above, as a working copy:
Screening CC1=NNC(=O)C1CCC(=O)N/N=C/c1ccc(Cl)cc1 (configuration not stated) returned eIF4H FP inh -7, MT1-MMP act inh -4, HIV Env fusion 0, Yeast UUG start 4, Rce1 inh inactive, CSC inhib -14, PABP polyA inh 0 and MT1-MMP act inh RFP -1.
CC(Oc1cc2oc(=O)c3c(c2cc1Cl)CCC3)C(=O)NCCCN1CCCC1=O (configuration not stated) was read as eIF4H FP inh 61, MT1-MMP act inh -3, HIV Env fusion -10, Yeast UUG start -14, Rce1 inh inactive, CSC inhib -3, PABP polyA inh 4, eIF4H FP inh retest -11, PABP polyA inh retest 12 and MT1-MMP act inh RFP -3.
`O=C(c1ccc(CN2CCOCC2)cc1)N1CCN(c2ccccc2F)CC1` gave eIF4H FP inh 11, MT1-MMP act inh 1, Yeast UUG start -21, Rce1 inh inactive, CSC inhib 38, PABP polyA inh -4 and MT1-MMP act inh RFP 6.

Going on with the list.
For c1cc(-c2ccc3nncn3c2)ccc1CN1CCOCC1 the results were MT1-MMP act inh -6, HIV Env fusion 3, Yeast UUG start -8 and MT1-MMP act inh RFP 2.
NS(=O)(=O)c1cccc(NC(=O)c2cccc(S(=O)(=O)N3CCCCCC3)c2)c1 was read as MT1-MMP act inh 1, HIV Env fusion -13, Yeast UUG start -4, CSC inhib -9 and MT1-MMP act inh RFP -8.
c1coc(-c2nnc(SCc3cn4ccccc4n3)o2)c1 was read as eIF4H FP inh -7, MT1-MMP act inh -3, Yeast UUG start -23, Rce1 inh inactive, CSC inhib -4, PABP polyA inh 0 and MT1-MMP act inh RFP -5.
CCN1CCC[C@H]1CNC(=O)c1c(OC)ccc(Br)c1OC was read as MT1-MMP act inh -1, HIV Env fusion -15, Yeast UUG start -30, CSC inhib -10 and MT1-MMP act inh RFP 0.
O=C(c1cc(-c2cccs2)on1)N1CCc2ccccc2C1 was read as eIF4H FP inh 0, MT1-MMP act inh 0, HIV Env fusion -33, Yeast UUG start -7, Rce1 inh inactive, CSC inhib -2, PABP polyA inh -2 and MT1-MMP act inh RFP -1.
`CN(C)c1cccc2c1c(NC(=O)Nc1ccccc1)nn2C` gave eIF4H FP inh -4, MT1-MMP act inh 0, HIV Env fusion 15, Rce1 inh inactive, CSC inhib -11, PABP polyA inh 14 and MT1-MMP act inh RFP -1.
For Cc1ccc(C(=O)OCC(=O)NCCc2ccc(F)cc2)cc1S(=O)(=O)N1CCOCC1 the results were MT1-MMP act inh -3, Yeast UUG start -14, CSC inhib -8 and MT1-MMP act inh RFP 1.
Cc1cc(C(=O)N/N=C/c2ccc(Cl)c([N+](=O)[O-])c2)c(C)n1-c1ccc(F)cc1 was read as eIF4H FP inh 0, MT1-MMP act inh 3, HIV Env fusion -4, Rce1 inh inactive, CSC inhib 32, PABP polyA inh -8 and MT1-MMP act inh RFP 0.
For COc1ccccc1CCNC(=O)CSc1ccc(-c2ccco2)nn1 the results were eIF4H FP inh 89, MT1-MMP act inh 0, HIV Env fusion -62, Rce1 inh inactive, CSC inhib -13, PABP polyA inh 4, eIF4H FP inh retest 3, PABP polyA inh retest -4 and MT1-MMP act inh RFP 3.
For CCCc1nc2ccc(NC(C)=O)cc2c(=O)n1Cc1ccccc1Cl the results were eIF4H FP inh -5, MT1-MMP act inh 0, HIV Env fusion -1, Yeast UUG start 5, Rce1 inh inactive, CSC inhib -10, PABP polyA inh -1 and MT1-MMP act inh RFP -3.
Screening CSc1n[nH]c(NCc2ccc(Cl)cc2)n1 returned eIF4H FP inh 2, MT1-MMP act inh 0, HIV Env fusion -88, Yeast UUG start -18, Rce1 inh inactive, CSC inhib -5, PABP polyA inh 6 and MT1-MMP act inh RFP 2.
O=S(=O)(c1ccccc1)N(CC1CO1)c1cc(Cl)ccc1Cl (configuration not stated) was read as eIF4H FP inh 3, MT1-MMP act inh -1, HIV Env fusion -4, Yeast UUG start -29, Rce1 inh inactive, PABP polyA inh 0 and MT1-MMP act inh RFP 0.
`CCOC(=O)c1cc(C#N)c(N2CCNCC2)nc1C(F)(F)F` gave eIF4H FP inh 3, MT1-MMP act inh -2, HIV Env fusion -7, CSC inhib -6, PABP polyA inh -13 and MT1-MMP act inh RFP -3.
Screening COc1cccc(OCc2nn3c(=O)c(-c4ccccc4)nnc3s2)c1 returned eIF4H FP inh -12, MT1-MMP act inh 1, HIV Env fusion 0, Yeast UUG start -9, Rce1 inh inactive, CSC inhib -2, PABP polyA inh 1 and MT1-MMP act inh RFP 4.
Screening CC(C)c1ccc(S(=O)(=O)Nc2ccc(N3CCOCC3)cc2)cc1 returned eIF4H FP inh 10, MT1-MMP act inh 3, HIV Env fusion -5, Yeast UUG start 35, Rce1 inh inactive, CSC inhib -10, PABP polyA inh 9 and MT1-MMP act inh RFP 0.
CC(C)OCCCNC(=O)CN1CCN(Cc2ccc(Cl)cc2)C1=O was read as eIF4H FP inh -5, MT1-MMP act inh -1, HIV Env fusion 16, Yeast UUG start 2, Rce1 inh inactive, CSC inhib -18, PABP polyA inh -6 and MT1-MMP act inh RFP 1.
Screening Cc1ccc2c(CSc3nnc(C4CC4)n3N)cc(=O)oc2c1 returned eIF4H FP inh 7, MT1-MMP act inh 2, Yeast UUG start -25, Rce1 inh inactive, PABP polyA inh 2 and MT1-MMP act inh RFP 0.
For OC[C@@H](O)[C@@H](O)[C@H](O)[C@@H](O)CO the results were MT1-MMP act inh 4, Yeast UUG start -9, Rce1 inh inactive, CSC inhib -9 and MT1-MMP act inh RFP 5.
Screening O=C(COc1ccc(Cl)c(Cl)c1)NN1C(=O)C2C(C1=O)C1C=CC2C12CC2 (configuration not stated) returned eIF4H FP inh -2, MT1-MMP act inh 3, HIV Env fusion -2, Yeast UUG start -20, Rce1 inh inactive, CSC inhib -11, PABP polyA inh -1 and MT1-MMP act inh RFP 4.
CCCC1c2ccsc2CCN1C(=S)NC (configuration not stated) was read as eIF4H FP inh -9, MT1-MMP act inh 1, HIV Env fusion -2, Rce1 inh inactive, CSC inhib 5, PABP polyA inh 5 and MT1-MMP act inh RFP 2.
For COc1ccc(C=CC(=O)C=CC=Cc2ccccc2)cc1 the results were MT1-MMP act inh -1, HIV Env fusion -61, Yeast UUG start -17 and MT1-MMP act inh RFP 1.
`Cc1ccc(NC(=S)Nc2ncccc2C)c(C)c1` gave eIF4H FP inh 3, MT1-MMP act inh -3, HIV Env fusion -184, Yeast UUG start -13, CSC inhib 1, PABP polyA inh 4 and MT1-MMP act inh RFP -6.
Screening COc1ccc(NC(=O)C(NC(C)=O)C(=O)NCc2ccccc2)cc1 (configuration not stated) returned eIF4H FP inh 13, MT1-MMP act inh 1, Yeast UUG start -8, Rce1 inh inactive, CSC inhib -8, PABP polyA inh -6 and MT1-MMP act inh RFP 3.
Screening O=C(Cn1cccc1C(=O)c1ccccc1)NCCc1ccc(Cl)cc1 returned MT1-MMP act inh 0, HIV Env fusion 8, Yeast UUG start -8, Rce1 inh inactive, CSC inhib -13 and MT1-MMP act inh RFP -2.
Screening O=C(COC(=O)COc1ccc(Br)cc1)NCc1ccccc1 returned MT1-MMP act inh -1, HIV Env fusion -6, Yeast UUG start -4 and MT1-MMP act inh RFP 4.
Screening CC(OC(=O)CSc1ccccc1)C(=O)NC1CCCCC1C (configuration not stated) returned MT1-MMP act inh 1, HIV Env fusion -8, Yeast UUG start -5 and MT1-MMP act inh RFP 3.
`CC(C)C(=O)NCc1cc(-c2ccccc2)no1` gave eIF4H FP inh 0, MT1-MMP act inh -8, HIV Env fusion 2, Rce1 inh inactive, CSC inhib -7, PABP polyA inh 31 and MT1-MMP act inh RFP -4.
C/C(=N\NC(=O)c1nnn(-c2nonc2N)c1C(C)C)c1cc(C)sc1C was read as eIF4H FP inh -4, MT1-MMP act inh 0, HIV Env fusion -14, Yeast UUG start -14, Rce1 inh inactive, CSC inhib 20, PABP polyA inh 0 and MT1-MMP act inh RFP -2.
C=CCSc1ncc(C(=O)OCC)c(N)n1 was read as eIF4H FP inh 4, MT1-MMP act inh 6, HIV Env fusion -8, Rce1 inh inactive, CSC inhib 5, PABP polyA inh 5 and MT1-MMP act inh RFP -3.
CCC(=O)N(c1nnc(SC(C)C(=O)Nc2ccc(N3CCOCC3)cc2)s1)C1CC1 (configuration not stated) was read as MT1-MMP act inh 1, HIV Env fusion -13, Yeast UUG start -9 and MT1-MMP act inh RFP 2.
For O=C(Cn1nnc(-c2ccc(Cl)cc2)n1)NC1CC2CCC1C2 (configuration not stated) the results were eIF4H FP inh -2, MT1-MMP act inh 0, HIV Env fusion -50, Yeast UUG start 10, Rce1 inh inactive, CSC inhib -4, PABP polyA inh 11 and MT1-MMP act inh RFP -1.

Not all compounds are listed, so the mix of outcomes need not match the whole.
